Screening data as filed in PubChem.
VDR inh – blocks the human vitamin D receptor; P11473; Potency, µM, for the others: max response, negative = inhibition, hits mostly inhibitors; VDR-SRC2-3 peptide fluorescence polarization, 2 h; actives 0.93% (n = 400,000); active = well fitted inhibition curve with a large enough effect; inconclusive = small, poorly fitted or top-dose-only effect, or another doubt; inactive = no such curve, though single readings can be large or run the other way; also: series mostly up to about 120 µM
Target sequence (P11473 whole entry, looked up): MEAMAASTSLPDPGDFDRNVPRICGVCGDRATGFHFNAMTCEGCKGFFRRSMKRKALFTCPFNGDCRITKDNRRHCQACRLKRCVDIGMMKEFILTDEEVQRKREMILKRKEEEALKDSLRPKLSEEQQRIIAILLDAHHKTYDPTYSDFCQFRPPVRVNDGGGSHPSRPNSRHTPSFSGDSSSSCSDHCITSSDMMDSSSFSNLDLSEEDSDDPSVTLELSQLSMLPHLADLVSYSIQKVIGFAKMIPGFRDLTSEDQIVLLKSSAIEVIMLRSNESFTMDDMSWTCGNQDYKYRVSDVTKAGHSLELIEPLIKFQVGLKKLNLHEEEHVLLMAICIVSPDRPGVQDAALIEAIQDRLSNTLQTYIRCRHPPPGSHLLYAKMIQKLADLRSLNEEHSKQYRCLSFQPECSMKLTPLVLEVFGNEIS
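Two reagent solutions held at 4 deg C in the dark were dispensed, compounds pinned at 23 nl, and the mixture incubated 2 h at room temperature. Read-out: fluorescence polarization of VDR–SRC2-3 peptide binding.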
* = called active by the depositor; ? = inconclusive; [ ] = dose if it differs, or a comment. % is scaled to controls: 0 for no effect and ±100 for the full control effect; potency is read from the fitted curve at half-maximal effect. These rows are one share of the data; count on the stated rates, not on these rows.

SMILES	VDR inh
CC(NC(=O)c1ccc2c(c1)OCCO2)c1ccc(S(N)(=O)=O)cc1 (configuration not stated)	12%
O=C(O)CC1=C(O)C(=O)N(c2ccccc2)C1c1ccc(Br)cc1 (configuration not stated)	-27%
Cc1ccc2cc(CN(Cc3ccco3)C(=O)c3ccco3)c3nnnn3c2c1	-7%
CCn1ccnc1CN(C)C(=O)C1CCC(=O)N(CCc2cccc(F)c2)C1 (configuration not stated)	-2%
O=C(NCC1CCCO1)c1sc(=S)n2c1[nH]c(=O)c1ccc(C(=O)N3CCCCC3)cc12 (configuration not stated)	-25%
Cc1cc(=O)oc2cc(OCc3nnc(-c4ccccc4Br)o3)ccc12	-2%
O=C(NC(=S)Nc1cccc(Cl)c1N1CCOCC1)c1cccs1	-29%
COc1ccccc1Nc1nc2nonc2nc1N1CCCCC1C (configuration not stated)	2%
O=C(NC1=NCCS1)[C@H](Cc1ccccc1)N1C(=O)c2ccccc2C1=O	-3%
CC(C)OC(=O)NCCOC(=O)Nc1cccc(Cl)c1	4%
O=C(CSc1n[nH]c(-c2ccccc2)n1)Nc1ncc(Br)cc1Br	2%
CCOC(=O)N1CCN(C(=O)COC(=O)CNC(=O)c2ccc(Cl)cc2Cl)CC1	0%
CCc1ccc(OCC(=O)NN2Cc3ccccc3C2=N)cc1	-8%
O=S(=O)([N-]c1nc2ccccc2nc1-[n+]1ccc(CCCc2ccccc2)cc1)c1cccs1	5%
CCOc1cc(NCCN2CCOCC2)c([N+](=O)[O-])cc1OCC	-2%
O=C1CN(C(=O)COC(=O)/C=C/c2ccc(S(=O)(=O)N3CCOCC3)cc2)c2ccccc2N1	-18%
COC1(c2cc(-c3ccccc3)nc(N)n2)CCCCC1	-4%
O=C(/C=C/c1c(F)cccc1Cl)Nc1ncccn1	-6%
COc1ccc(OCC(=O)N2CCN(c3nnc(-c4ccc(C)cc4)c4ccccc34)CC2)cc1	-11%
COc1ccc(NC(=O)CCS(=O)(=O)c2cc3c(cc2Cl)NC(=O)CO3)cc1OC	2%
COC(=O)C1=NN(C(C)(C)CC(C)=O)C2C(=O)N(C3CCCCC3)C(=O)C12 (configuration not stated)	26%
CCCCC(CC)C(=O)Nc1ccccc1C(=O)NC(C)C (configuration not stated)	1%
C/C(=N\NC(=O)c1ccc(F)cc1)c1ccc(N2CCOCC2)cc1	12%
CCOc1ccc(C2C(C(=O)Nc3ccccc3OC)=C(C)Nc3c(C(=O)Nc4cccc(C)c4)cnn32)cc1 (configuration not stated)	15%
O=C(NC1CC1)C1=COCCO1	-3%
CC(C)c1nnc(NC(=O)CCC(=O)Nc2ccc(Cl)cc2)s1	-9%
O=C(c1ccc(NC(=O)C2(c3ccccc3)CCCC2)cc1)N1CCOCC1	-12%
CCOC(=O)C1=C(CCl)NC(=O)NC1c1ccc2c(c1)OCO2 (configuration not stated)	-8%
Cc1cc(C)nc(-n2ncc(C#N)c2N)n1	-19%
O=C(O)CCC(=O)Nc1ccc(Oc2ncnc3cc(Cl)ccc23)nc1	7%
NNC(=O)c1ccccc1-n1cccc1	-11%
CCCN(C(=O)C1CCN(S(=O)(=O)c2c(C)noc2/C=C/c2ccc(C)cc2)CC1)c1ccccc1F	-8%
O=C(Cc1cccc(C(F)(F)F)c1)Nc1ccc(S(=O)(=O)N2CCCC2)cc1	4%
Cc1cc(C)c2c(N)c(C(=O)Nc3ccccc3Cl)sc2n1	-3%
C=CCc1cccc2cc(C(=O)N3CCN(C(=O)OCC)CC3)c(=O)oc12	-4%
c1ccc(CNC2=NCCCC2)cc1	17%
Cn1ccnc1Sc1cc(Cl)ccc1[N+](=O)[O-]	1%
COn1c(=O)c(-c2ccccc2)[n+]([O-])c2ccccc21	-11%
COc1cc(/C=C/C(=O)c2ccccc2O)cc(OC)c1OC	32µM*
O=C1NCCOC(=O)[C@H](Cc2ccc(F)cc2)CC/C=C/C[C@@H]1CC(=O)N(CCO)Cc1ccccc1	-5%

Part of the list above, comma-delimited:
smiles,VDR inh
COC(=O)C1=NN(C(C)(C)CC(C)=O)C2C(=O)N(C3CCCCC3)C(=O)C12 (configuration not stated),26%
CCCCC(CC)C(=O)Nc1ccccc1C(=O)NC(C)C (configuration not stated),1%
C/C(=N\NC(=O)c1ccc(F)cc1)c1ccc(N2CCOCC2)cc1,12%
CCOc1ccc(C2C(C(=O)Nc3ccccc3OC)=C(C)Nc3c(C(=O)Nc4cccc(C)c4)cnn32)cc1 (configuration not stated),15%
O=C(NC1CC1)C1=COCCO1,-3%
CC(C)c1nnc(NC(=O)CCC(=O)Nc2ccc(Cl)cc2)s1,-9%
O=C(c1ccc(NC(=O)C2(c3ccccc3)CCCC2)cc1)N1CCOCC1,-12%
CCOC(=O)C1=C(CCl)NC(=O)NC1c1ccc2c(c1)OCO2 (configuration not stated),-8%
Cc1cc(C)nc(-n2ncc(C#N)c2N)n1,-19%
O=C(O)CCC(=O)Nc1ccc(Oc2ncnc3cc(Cl)ccc23)nc1,7%
NNC(=O)c1ccccc1-n1cccc1,-11%
CCCN(C(=O)C1CCN(S(=O)(=O)c2c(C)noc2/C=C/c2ccc(C)cc2)CC1)c1ccccc1F,-8%
O=C(Cc1cccc(C(F)(F)F)c1)Nc1ccc(S(=O)(=O)N2CCCC2)cc1,4%
Cc1cc(C)c2c(N)c(C(=O)Nc3ccccc3Cl)sc2n1,-3%
C=CCc1cccc2cc(C(=O)N3CCN(C(=O)OCC)CC3)c(=O)oc12,-4%
c1ccc(CNC2=NCCCC2)cc1,17%

Next structures:
SMILES	VDR inh
Cc1nn(C)c(C)c1C1C(C#N)=C(N)OC2=C1C(=O)CC(C)(C)C2 (configuration not stated)	-10%
O=C(CCC(=O)OCc1ccc(Cl)cc1)Nc1cccc([N+](=O)[O-])c1	-4%
Cc1nc(SCC(=O)c2ccc(F)cc2)c([N+](=O)[O-])[nH]1	1%
CCC(=O)N1CCc2cc(S(=O)(=O)NC(C(=O)NCc3ccccc3Cl)C(C)C)ccc21 (configuration not stated)	-6%
Cc1cc(C)cc(-n2c(SCC(=O)Nc3cccc(F)c3)nc3c([nH]c4ccccc43)c2=O)c1	8%
CN(C)S(=O)(=O)c1cc(NC(=O)c2ccc(-n3ccnc3)c([N+](=O)[O-])c2)ccc1Cl	-13%
CC1=C(C(=O)NCc2ccc3c(c2)OCO3)C2(CCC(C)CC2)OC1=O (configuration not stated)	7%
CCCCC1CC(C)(C(=O)CSc2nc3ccccc3s2)OC1=O (configuration not stated)	0%
COc1ccc(S(=O)(=O)N2CCCC(C(=O)NCc3ccco3)C2)cc1OC (configuration not stated)	19%
O=C(NN1CC(C(=O)OCc2ccccc2F)CC1=O)c1ccccc1 (configuration not stated)	-11%
CCC1Sc2ccc(S(=O)(=O)Nc3ccc(OC)cc3)cc2NC1=O (configuration not stated)	2%
O=C(Nc1ccc2nc(SCC(=O)N3CCc4ccccc43)sc2c1)c1ccccc1F	0%
CC(=O)Nc1ccc(-n2nnnc2SCC(=O)Nc2cccc(NC(=O)c3ccco3)c2)cc1	24%
CCc1nn(CC(=O)NCc2ccc(C)cc2)c(=O)c2cc3occc3n12	0%
OCCNc1nc(Nc2ccc(Br)cc2)nc2ccccc12	6%
CCOC(=O)C1(Cc2ccccc2C)CCCN(S(=O)(=O)CC)C1 (configuration not stated)	-7%
CC(=O)NC(=S)Nc1sc2c(c1C#N)CCCCC2	-12%
CN(c1ccc(C(=O)Nc2ccccc2Sc2ccccc2)cc1)S(C)(=O)=O	2%
C=CCOc1ccn(C)c(=O)n1	-11%
O=C(Nc1ccccc1)N1CCN(c2ccccn2)CC1	8%
COc1ccc(C2NC(c3ccc(OC)cc3)C(C)C(=O)C2C)cc1 (configuration not stated)	-6%
O=[N+]([O-])c1ccccc1/C=C/CN1CCSCC1	-18%
O=C(COC(=O)c1c(Cl)ccc(Cl)c1Cl)NC1CCS(=O)(=O)C1 (configuration not stated)	-5%
O=C(/C=C/c1ccc(Cl)c(Cl)c1)NCc1ccco1	8%
COC(=O)/C(C#N)=C/N(C)C	2%
Cc1ccc(Cl)cc1NC(=O)c1cccc(NC(=O)N2CCSc3ncccc32)c1	-4%
COC(=O)C1=NN(c2ccc(C)cc2)C2C(=O)N(c3ccccc3OC)C(=O)C12 (configuration not stated)	-13%
COc1cc(-c2c(NC(=O)c3ccco3)oc3ccccc3c2=O)cc(OC)c1OC	-10%
COc1ccc(S(=O)(=O)N2CCC(C(=O)N[C@H](C(=O)N3CCCCCC3)C(C)C)CC2)cc1	-2%
CN(C)CCC(=O)c1cccc(Br)c1	?
CCC(=O)Nc1nc2ccc(NC(=O)COc3ccccc3)cc2s1	8%
CCC(Sc1nc(-c2ccccc2)cc(=O)[nH]1)C(=O)O (configuration not stated)	5%
Cc1cc2[nH]c3ccccc3c2cn1	-4%
CC1CCN(C(=O)CCC(=O)Nc2nnc(C3CCCCC3)s2)CC1	18%
O=C(O)c1cncc(C#Cc2ccccc2)c1	2%
CC1(c2ccc(Cl)cc2Cl)NC(=O)N(CC(=O)Nc2cccnc2Cl)C1=O (configuration not stated)	?
O=C(O)c1cc([N+](=O)[O-])ccc1N1CCCCC1	-4%
COc1ccc(NC(=O)CSc2n[nH]c(-c3ccccn3)n2)cc1	10%
Nc1c(N(Cc2ccccc2)C(=O)CCc2ccccc2)c(=O)[nH]c(=O)n1Cc1ccccc1	5%
CC1(C)CC(=O)C(C=N)=C(O)C1	3%

A second format for two compounds above:
> O=C(O)c1cncc(C#Cc2ccccc2)c1
  VDR inh: 2%

> CC1(c2ccc(Cl)cc2Cl)NC(=O)N(CC(=O)Nc2cccnc2Cl)C1=O (configuration not stated)
  VDR inh: ?

Continued:
SMILES	VDR inh
COc1cc2c(cc1OC)C1N(CC2)C(=O)CCC12C(=O)CCCC2=O (configuration not stated)	71µM*
CCOc1ncccc1C(=O)OCC(=O)N1CC(=O)Nc2ccccc21	9%
COc1ccccc1NC(=S)N1CCN(c2nc(-c3ccccc3)cs2)CC1	?
CCCOCC(O)CCc1n[nH]c(=S)n1-c1ccccc1 (configuration not stated)	1%
N#Cc1c(Nc2ccccc2)c(C=O)c[nH]c1=O	8%
Cc1ccc(C(=O)CCC(=O)N(C)CC(=O)Nc2ccccc2Br)cc1	-13%
Cc1nn2c(=O)cc(COC(=O)c3cccc(NC(=O)CCc4ccccc4)c3)nc2s1	7%
COc1ccccc1C(=O)N/N=C(\C)CC(=O)Nc1ccc(Nc2ccccc2)cc1	-10%
Cc1cccc(-n2nc(C(=O)c3ccco3)cc(-c3nc4ccccc4[nH]3)c2=N)c1	3%
CCc1cc2c(N3CCN(c4nnc(CC)s4)CC3)ncnc2s1	6%
O=C(/C=C/c1ccc(F)cc1)NC(=S)N1CCCCC1c1cccnc1 (configuration not stated)	14%
O=C(NC(Cc1ccccc1)C(=O)O)/C(=C/c1ccccc1)NC(=O)c1ccc(Br)o1 (configuration not stated)	4%
CCCCCCCCCCCCCCCCn1cc[n+](Cc2ccccc2)c1C	85%[activator]
CCOc1cc(/C=N\NC(N)=O)cc(Br)c1OC(C)C	12%
CC1=C(Cl)C2=NS(=O)(=O)CCN2C=C1Cl	?
COc1ccc(S(=O)(=O)Nc2nc3ccccc3nc2NCc2ccc3c(c2)OCO3)cc1	-22%
Cc1c(NC(=O)C(=O)N/N=C/c2cccs2)c(=O)n(-c2ccccc2)n1C	0%
Cc1ccc(N2CCN(c3ccc(NC(=O)CCC(=O)O)cc3)CC2)cc1	-6%
O=C(COC(=O)C1CCN(S(=O)(=O)c2ccc3c(c2)OCCO3)CC1)NC1CCS(=O)(=O)C1 (configuration not stated)	-5%
Cc1nc(N2CCOCC2)c2c(C)c(C(=O)Nc3ccccc3C(F)(F)F)sc2n1	-6%
Nc1nnc(CC2=CCCCC2)s1	-4%
CC1(C)CC2CC(C)(CN2CC(=O)C(C#N)c2ccccc2)C1 (configuration not stated)	-1%
CCCNC(=O)C12CCC(C)(C(=O)O1)C2(C)C (configuration not stated)	1%
CCOC(=O)Cn1c(=NC(=O)c2cccs2)sc2cc(C(=O)OC)ccc21	-18%
Brc1ccccc1C1=Nn2c(nnc2-c2ccco2)SC1	5%
O=C1N[C@@H](Cc2ccccc2)C(=O)N1CCN1CCOCC1	3%
CCOc1ccc(-n2cc(C(=O)N3CCC(C)CC3)c3cc(OC)c(OC)cc3c2=O)cc1	9%
CCCCn1c2nc3ccccc3nc2c2c(=O)n(CCC(C)C)cnc21	3%
C#CCOCCOCCOCCNc1nc(N2CCN(C(=O)[C@H](CCCCN)n3cc([C@@H](N)[C@H](C)CC)nn3)CC2)nc(N2CCN(C(=O)[C@H](CCC(=O)O)n3cc([C@@H](N)CCCCN)nn3)CC2)n1	6%
COC(=O)C1C(=O)C=C(Nc2ccc(F)cc2F)CC1c1ccc(OC)cc1 (configuration not stated)	4%
CCN(CC)CCCNC(=O)c1ccc(Cl)c(S(=O)(=O)Nc2ccccc2OC)c1	-7%
c1ccc(CN2CCN(C3=Nc4cccc5cccc3c45)CC2)cc1	3%
O=C1CC(c2ccccc2)Cc2[nH]c(=O)c(C(=O)Nc3cccc(F)c3)cc21 (configuration not stated)	-1%
COc1ccc(-n2c(C)cc(/C=N/Nc3nc(N4CCOCC4)nc(N4CCOCC4)n3)c2C)cc1	-19%
Cc1ccccc1-c1nc2c(=O)n(C)c(=O)nc-2n(C)n1	-22%
CCOC(=O)C1C(C(=O)OC)=C(c2ccc(F)cc2)c2ccc(OC)cc2N1S(=O)(=O)C(F)(F)F (configuration not stated)	3%
COc1ccccc1NC(=O)CN1CCN(c2ccc(F)cc2)CC1	?
CCN(CC)c1ccc(/C=C2/SC(=O)N(C(C)C)C2=O)o1	32µM*
Clc1ccc(-c2ccc(CNCc3ccccn3)o2)cc1	?
CC(=O)Nc1cccc(-c2nc3ccccc3[nH]2)c1	-16%
